# KCNQ2 enhance – KCNQ2 (rat) channel potentiation; O88943; CHO-K1 KCNQ2, FluxOR thallium flux fluorescence; active compounds read high; actives 0.54% (n = 310,000); B-score at 10 µM;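 active means fluorescence ratio B-score at least 3 SD of library B-scores, with initial fluorescence B-score within 3 SD, cut at about 5.3 in these data; same plate scores as AID 2156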;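 further: B-score of peak minus minimum over baseline fluorescence ratio after K+ and Tl+ stimulus; positive B-score means potentiation of KCNQ2 with more thallium influx and brighter signal; only the inactives scoring about 0 or higher are listed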
# Target sequence (O88943 whole entry, looked up): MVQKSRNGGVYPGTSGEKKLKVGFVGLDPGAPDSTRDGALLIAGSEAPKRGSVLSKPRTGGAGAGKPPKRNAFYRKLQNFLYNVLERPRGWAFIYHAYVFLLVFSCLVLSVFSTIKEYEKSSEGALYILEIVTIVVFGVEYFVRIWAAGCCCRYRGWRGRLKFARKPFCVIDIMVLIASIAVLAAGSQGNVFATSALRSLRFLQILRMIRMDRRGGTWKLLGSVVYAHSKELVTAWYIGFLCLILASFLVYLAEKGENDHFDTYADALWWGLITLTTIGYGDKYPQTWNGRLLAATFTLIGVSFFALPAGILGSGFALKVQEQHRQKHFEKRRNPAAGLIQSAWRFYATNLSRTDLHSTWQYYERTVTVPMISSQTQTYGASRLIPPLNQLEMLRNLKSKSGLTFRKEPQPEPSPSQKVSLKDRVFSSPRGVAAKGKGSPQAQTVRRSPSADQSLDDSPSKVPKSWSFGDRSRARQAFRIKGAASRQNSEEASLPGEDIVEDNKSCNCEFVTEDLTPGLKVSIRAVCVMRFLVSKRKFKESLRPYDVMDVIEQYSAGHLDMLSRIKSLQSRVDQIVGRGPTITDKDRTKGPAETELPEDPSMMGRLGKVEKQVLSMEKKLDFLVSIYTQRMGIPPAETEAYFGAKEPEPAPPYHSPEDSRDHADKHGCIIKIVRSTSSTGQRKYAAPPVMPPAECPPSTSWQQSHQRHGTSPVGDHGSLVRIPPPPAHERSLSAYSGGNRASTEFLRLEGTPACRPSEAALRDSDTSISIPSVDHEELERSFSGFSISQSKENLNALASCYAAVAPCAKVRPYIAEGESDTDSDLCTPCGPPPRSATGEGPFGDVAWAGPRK
# KCNQ2 enhance baseline – also measured in KCNQ2 enhance; calls as there; B-score; compound at 10 µM; measured here: initial fluorescence intensity artifact check;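 brightness before thallium and not channel activity; 0 = typical well and far values either way flag optical interference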
# Starred values were filed as active, the others as inactive. An excerpt (hit frequency here may not be typical).
SMILES,KCNQ2 enhance,KCNQ2 enhance baseline
CCCc1cc(=O)n2[nH]c(C)c(-c3ccc(OC)cc3)c2n1,0.63,0.93
NC(=O)COC(=O)c1cc(=O)[nH]c2ccccc12,0.01,-1.39
CCn1c(Cc2ccccc2)nnc1SCC(=O)NC(C)(C)C,0.73,-1.01
CN(C)CCCN(C(=O)c1ccc(S(=O)(=O)N2CCOCC2)cc1)c1nc2ccc(F)cc2s1,1.2,-0.77
O=C(NCc1ccc2c(c1)OCO2)c1cnc2n(c1=O)CCS2,1.75,0.9
O=C(/C=C/c1ccco1)N(Cc1cccc(Cl)c1)C1CCS(=O)(=O)C1 (centres undefined),0.75,0.51
O=C(O)c1cnn2c(-c3ccc(F)cc3)ccnc12,0.08,-1.19
CCOCCCNCc1ccc(Cl)cc1,0.06,-0.03
CCOc1ccc(NC(=O)c2cccc3c2C(=O)N(CCOC)C3)cc1,0.32,-0.1
Cn1c(C2CCCN2C(=O)OC(C)(C)C)n[nH]c1=S (centres undefined),0.8,-0.72
CCN(C(=O)COC(=O)c1cc(S(=O)(=O)N2CCOCC2)ccc1F)C1CCS(=O)(=O)C1 (centres undefined),0.61,1.5
Cc1cccc(C(=O)NCCCNC(=O)c2ccccn2)c1,1.51,-1.1
Cc1c(CC(=O)NCCCC(=O)O)c(=O)oc2c(C)c3oc4c(c3cc12)CCCC4,1.43,0.71
Cc1nc2ccc(C(=O)Nc3cccc([N+](=O)[O-])c3)cc2s1,0.32,-1.6
COc1cc(/C=C/C(=O)OCC(=O)NC(=O)NC2CCCCC2)ccc1OC(F)F,0.36,0.82
Cc1ccc(NC(=S)NNC(=O)c2ccco2)cc1,1.22,0.07
Cc1nn(C(=O)c2ccco2)c(C)c1Sc1ccc([N+](=O)[O-])cc1,1.17,0.34
O=[N+]([O-])/C(C=Nc1ccccc1O)=C\Nc1ccccc1O,0.16,-0.29
Cc1ccc(/C=C/C(=O)Nc2cc(=O)n(C)c(=O)n2C)o1,0.2,-0.32
O=C/C(=C\Nc1ccc(Cl)cn1)c1nc2ccccc2o1,0.76,0.78

# Laid out differently: 4 of the compounds above
KCNQ2 enhance | KCNQ2 enhance baseline | Compound
0.2 | -0.32 | Cc1ccc(/C=C/C(=O)Nc2cc(=O)n(C)c(=O)n2C)o1
1.43 | 0.71 | Cc1c(CC(=O)NCCCC(=O)O)c(=O)oc2c(C)c3oc4c(c3cc12)CCCC4
0.75 | 0.51 | O=C(/C=C/c1ccco1)N(Cc1cccc(Cl)c1)C1CCS(=O)(=O)C1 (centres undefined)
0.63 | 0.93 | CCCc1cc(=O)n2[nH]c(C)c(-c3ccc(OC)cc3)c2n1

# (listing goes on)
SMILES,KCNQ2 enhance,KCNQ2 enhance baseline
O=C(N/N=C/C=C/c1ccccc1[N+](=O)[O-])c1ccncc1,0.03,-0.62
O=C(O)CCNC(=O)C12CC3CC(CC(C3)C1)C2,0.43,-0.87
O=c1[nH]c2cc3c(cc2cc1C(c1nnnn1Cc1ccccc1)N1CCCc2ccccc21)OCO3 (centres undefined),0.13,0.05
CCOC(=O)N1CCC(NC(=O)c2cnn3cccnc23)CC1,1.05,0.78
CC1(C)C(=O)OC(/C=C\c2ccccc2)C(C)(C)C1=O (centres undefined),0.11,-0.17
CNc1nc(-c2ccc3c(c2)CCN3C(=O)CC(C)(C)C)c(C)s1,0.85,-2.13
COc1ccc(NC(=O)NN2CCOCC2)cc1OC,0.65,-0.08
COc1cc(C(=O)Nc2ccc(Cl)c([N+](=O)[O-])c2)cc(OC)c1OC,2.16,0.8
CC(C)C[C@H](NC(=O)c1[nH]cnc1C(=O)Nc1ccc(Cl)cc1)C(=O)OC(C)(C)C,0.8,-0.93
CCN1CCN(CC(=O)N2N=C(c3cccs3)CC2c2ccc(OC)c(OC)c2)C(=O)C1=O (centres undefined),0.03,0.44
O=C(Cc1ccccc1)NC1CCN(C(=O)c2ccc([N+](=O)[O-])cc2)CC1,0.01,-3.01
CCC(=O)N1C(=O)CCN(C(C)=O)c2ccccc21,0.89,0.62
COc1ccc(Nc2nc(N)nc(CN3CCOCC3)n2)cc1,0.36,-2.21
Cc1cc(C(=O)N2CCN(c3ccc(C(F)(F)F)cn3)CC2)c(C)o1,1.75,-0.61
CCN1C(=O)C(CC(=O)Nc2ccc(F)cc2)N(Cc2ccc3c(c2)OCO3)C1=S (centres undefined),0.68,-0.33
Cc1[nH]c2ccccc2c(=O)c1SC(F)(F)C(F)C(F)(F)F (centres undefined),1.15,2.23
COCCN(C(C)=O)c1nnc(-c2ccccn2)s1,0.8,-0.89
O=C1CC(C(=O)Nc2nccs2)C(c2ccccc2)O1 (centres undefined),0.25,0.01
CCN1CCN(CC(=O)Nc2ccc(Cl)c(S(=O)(=O)N(C)C)c2)CC1,0.08,-1.25
CC(C)CCN1C(Nc2ccccc2)=NC[C@@H]1CC(C)C,0.55,-0.18
[O-]/C(=C(\C(=S)NCCN1CCOCC1)[n+]1ccccc1)c1ccc(Cl)s1,1.07,1.33
CCN1C(=O)CSc2ccc(C(=O)NCc3ccco3)cc21,0.01,-0.04
CS(=O)(=O)n1nc(-c2cccnc2)nc1NCc1ccccc1,0.57,0.84
COc1ccccc1C1=NOC(CN2C(=O)c3ccccc3S2(=O)=O)C1 (centres undefined),0.83,0.05
COc1ccc(CC(=O)c2ccc(O)cc2O)cc1,0.03,-0.76
C=CCS/C(N)=N\N=C\c1cc(Br)cc([N+](=O)[O-])c1O,2.94,-0.05
Cc1ccc(OCCN2CCN(C(=O)CCC(=O)Nc3nnc(C(C)C)s3)CC2)cc1,0.67,0.56
O=C(CSC1=NS(=O)(=O)c2cc(Cl)ccc2N1)Nc1ccccc1C(F)(F)F,2.49,-0.87
CCNC(=S)Nc1ccc(OC(F)(F)F)cc1,0.97,-0.15
COc1ccc2oc(C(=O)OCC(=O)N3CCN(S(=O)(=O)c4ccc(C)cc4)CC3)c(C)c2c1,1.21,0.51
Cc1nc(SCc2ccc(OCCC(C)C)cc2)n[nH]1,0.94,-0.21
CCOc1ccc(CCNC(=O)COC(=O)c2cc(OC)cc(OC)c2)cc1OCC,1.76,-0.3
COc1ccc(N(C)S(=O)(=O)c2cccc(C(=O)NCC3CCCO3)c2)cc1 (centres undefined),0.98,1.33
COc1cc2sc3ccc(C#Cc4ccc(N)cc4)cc3c(=O)c2cc1OC,0.01,-1.67
COc1ccc(-n2c(=S)[nH]c3cc(C(=O)N4CCN(c5ccccc5)CC4)ccc3c2=O)cc1,1.72,0.99
CCCC(=O)N(c1ccc(OC)cc1)C1C=CS(=O)(=O)C1 (centres undefined),0.52,0.15
Cn1c(C(=O)N2CCN(C(=O)c3ccco3)CC2)cc2c(=O)n3ccccc3nc21,0.03,-0.43
CCOC(=O)c1sc(NS(=O)(=O)c2ccccc2)nc1C,0.13,0.95
CCCCNC(=O)C1CC(=O)N(CCC(C)C)C1 (centres undefined),0.16,0.41
NS(=O)(=O)c1ccc(NC(=O)CCc2ccccc2)cc1,0.96,0.27
Cc1cccc(NC(=O)c2ccc3c(c2)OCCO3)n1,1.07,2.16
COc1ccc(C2CC(=O)N3CN(c4ccc(C)c(Cl)c4)CSC3=C2C#N)cc1 (centres undefined),1.09,0.51
O=C(Nc1nc2c(F)cc(F)cc2s1)c1ccc([N+](=O)[O-])o1,0.53,-0.47
CCCCNc1ncnc2sc3c(c12)CCN(CCC)C3,0.04,-0.47
O=C(Nc1ccccc1)/C(=C1\CCCN1)[N+](=O)[O-],0.49,1.15
Cc1ccc(C(=O)Nc2ncc([N+](=O)[O-])s2)cc1,0.35,-0.23
COc1ccccc1C1=NOC(Cn2c(=O)c3c(ncn3C)n(C)c2=O)C1 (centres undefined),1.07,-0.11
COc1cc(SC)ccc1C(=O)Nc1ncc(C)s1,0.29,1.01
COCCCn1c(=O)c2sccc2n(Cc2ccccc2)c1=O,0.26,-0.96
CC(=O)c1ccc(NC(=O)c2cnsn2)cc1,0.65,1.56
CS(=O)(=O)c1ccc2nc(NC(=O)c3ccc(Cl)cc3)sc2c1,1.45,-0.18
Cc1cccc(Cn2cnc3ccccc32)c1,0.95,1.1
COC(Cc1ccccc1N1CCCC1=O)OC,0.91,1.65
Cc1cccc2cc(COC(=O)c3cccc([N+](=O)[O-])c3)c(=O)[nH]c12,0.41,0.03
Cc1ccccc1Nc1nc(N)nc(COC(=O)c2ccccc2)n1,0.35,-0.01
Nc1cc(=O)[nH]c(SCC(=O)Nc2ccc(F)c(Cl)c2)n1,1.22,0.92
CCOC(=O)c1nn(-c2ccccc2)c(=O)cc1SC(C)C,0.86,1.27
CCCSC1=C(C#N)C(c2ccc(O)c(OC)c2)CC(=O)N1 (centres undefined),3.25,-0.26
Cc1ccc(NC(=O)COc2ccc(/C=C3/SC(=Nc4ccccc4)N(Cc4cccnc4)C3=O)cc2)cc1,0.27,-0.06
CCO[C@H]1OC(C(=O)NC2CC2)=C[C@@H](c2ccc(C(F)(F)F)cc2)[C@@H]1CCCO,1.26,0.29

# 4 consecutive compounds from above, for reference:
SMILES,KCNQ2 enhance,KCNQ2 enhance baseline
Cc1cccc(NC(=O)c2ccc3c(c2)OCCO3)n1,1.07,2.16
COc1ccc(C2CC(=O)N3CN(c4ccc(C)c(Cl)c4)CSC3=C2C#N)cc1 (centres undefined),1.09,0.51
O=C(Nc1nc2c(F)cc(F)cc2s1)c1ccc([N+](=O)[O-])o1,0.53,-0.47
CCCCNc1ncnc2sc3c(c12)CCN(CCC)C3,0.04,-0.47

# Entries of single compounds from above. Order of values: KCNQ2 enhance | KCNQ2 enhance baseline
# O=C(Nc1nc2c(F)cc(F)cc2s1)c1ccc([N+](=O)[O-])o1 across the screens: 0.53 | -0.47
# Nc1cc(=O)[nH]c(SCC(=O)Nc2ccc(F)c(Cl)c2)n1 across the screens: 1.22 | 0.92
# Cc1ccccc1Nc1nc(N)nc(COC(=O)c2ccccc2)n1 across the screens: 0.35 | -0.01
# Cc1ccc(NC(=O)COc2ccc(/C=C3/SC(=Nc4ccccc4)N(Cc4cccnc4)C3=O)cc2)cc1 across the screens: 0.27 | -0.06

# (listing goes on)
SMILES,KCNQ2 enhance,KCNQ2 enhance baseline
CCS(=O)(=O)N1CCN(C(=O)CCC2CCCC2)CC1,0.19,-0.5
COc1ccc(S(=O)(=O)NCC(=O)Nc2ccc3c(c2)OCCO3)cc1OC,0.01,-1.41
CC(C)N1C(=O)CC2(CC[N+](C)(CCOC(=O)C(c3ccccc3)c3ccccc3)CC2)C1=O (centres undefined),0.32,0.32
CCn1c(SC(C)C)nnc1-c1c[nH]c2ccccc12,0.19,0.96
O=C(Nc1cccnc1)C(Cc1ccccc1)n1cccc1 (centres undefined),0.5,-0.55
O=C(Nc1ccccc1-c1nc2ccccc2s1)c1ccc(Br)o1,1.16,0.04
COc1ccccc1/C=C\C(=O)NCC(=O)N/N=C/c1cccc(OC)c1O,0.27,-0.03
Cc1coc2c(C)c3oc(=O)c(CCC(=O)NCCCN4CCCC4=O)c(C)c3cc12,1.73,-1.08
CCN(CC)C(=O)CSC1=C(C#N)C(c2cccs2)C=C(C)N1 (centres undefined),0.71,1.53
Cc1ccc(C(=O)Nc2cccc(N3C(=O)C4CCC(C)CC4C3=O)c2)cc1 (centres undefined),0.01,-0.96
O=C(NC1CCCCC1)c1ccc(S(=O)(=O)c2ccccc2Cl)c([N+](=O)[O-])c1,0.5,-4.05
Cc1cc(Cl)ccc1OCCCC(=O)N1CCOCC1,0.36,-1.08
CCN1CCN(CC(O)COC(c2ccccc2)c2ccccc2C)CC1 (centres undefined),0.77,1.43
COc1ccc(N(CC(=O)NCc2cccnc2)S(=O)(=O)c2ccccc2[N+](=O)[O-])c(OC)c1,0.07,1.12
Cc1ccc(S(=O)(=O)CCC(=O)OCC(=O)c2cc(C)ccc2C)cc1,1.36,1.78
CNNC(=S)Nc1cccc(SC)c1,0.89,-0.01
COc1ccccc1CCC(=O)Nc1cccc(S(=O)(=O)N2CCCC2)c1,1.51,-0.33
C=CCNC(=O)c1snnc1-c1ccccc1,0.11,0.08
Cc1c(C(=O)Nc2ccc(Cl)cn2)oc2ccccc12,0.15,-0.9
CCn1cc(CNC(=O)CCc2nnc(CCC3CCCCC3)o2)cn1,1.53,0.56
Cc1nn(-c2ccc(N3CCOCC3)nn2)c(C)c1CCC(=O)NCc1ccccc1,0.78,0.1
CN(C)C(=S)c1ccc(N(C)C)cc1,1.31,-0.84
Cc1cc(Cl)c2oc(C(=O)NC3CCC(O)CC3)c(C)c2c1 (centres undefined),0.11,-0.03
Cc1ccc(C)c(N(C(=O)c2csnn2)C(C(=O)NC2CCCCC2)c2cccnc2)c1 (centres undefined),0.5,0.39
CCN1CCN(C(=S)NCC2CCCO2)CC1 (centres undefined),1.08,-0.06
O=C(NC1CCCC1)c1cccc(S(=O)(=O)N2CCCCC2)c1,0.03,-0.02
Nn1c(SCc2ccccn2)nncc1=O,0.32,-2.57
O=C(c1cn2ccccc2n1)N1CCCC(Nc2ccc(F)c(F)c2)C1 (centres undefined),1.41,0.07
COC1CCCN(C(=O)c2cccc(OC3CCN(S(C)(=O)=O)CC3)c2)C1 (centres undefined),0.38,-0.87
N#Cc1c(-c2ccc(Cl)cc2)ccnc1N1CCOCC1,0.05,1.6
Cc1snc(SCc2ccc(F)cc2)c1C#N,0.48,0.07
COCCNc1ccc(S(=O)(=O)N2CCCC2)cn1,1.72,1.16
Cc1ccc(/C=N/NC(=S)NC2CCCCC2)o1,0.35,-0.26
N#Cc1cc(-c2ccccc2)nnc1Sc1ccc(Cl)cc1,1.71,0.01
Cc1ccc(OCc2ccc(C(=O)Nc3nc4ccccc4n3C)o2)c([N+](=O)[O-])c1,0.1,-0.64
O=C(O)c1cc2nc(-c3ccccc3)cc(C(F)(F)F)n2n1,0.66,0.42
CCCCC(=O)Nc1nnc(SCC(=O)NC2CC2)s1,0.26,0.08
O=C(NCCCn1ccnc1)C(=O)NCC1OCCN1S(=O)(=O)c1ccc(Br)cc1 (centres undefined),0.48,-1.12
